# Screening results: PubChem, Emory University Molecular Libraries Screening Center
# Measles inh = inhibitors of measles virus growth in infected cells | hit rate 0.1% among 33,000 | AID 745 | infected Vero cells, GFP fluorescence, 64 h; stronger effect = lower value | z-score (no concentration beside the values);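 active means z-score under -3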;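 further: score is relative to mean and SD of the compound wells of a plate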
# * hit, by the source's call. Not all compounds are listed. The share of hits here may be higher or lower than overall.
SMILES,Measles inh
O=C(Nc1ccc(Cl)cc1C(=O)c1ccccc1Cl)c1ccc([N+](=O)[O-])s1,0.31
CCCCNC(=O)CN1C(=O)CN=C(c2ccccc2)c2cc(Cl)ccc21,-1.13
O=C(CNC(=O)c1cccc(Cl)c1)Nc1ccc(Br)cc1C(=O)c1ccccc1,0.8
COc1ccccc1-n1c(C=Cc2ccc([N+](=O)[O-])o2)nc2ccccc2c1=O,-0.27
CCOC(=O)C1=C(N)OC(C)=C(C(C)=O)C12C(=O)Nc1ccccc12 (configuration not stated),-0.41
COc1ccc(C=Cc2nc3ccccc3c(=O)n2-c2ccc(C)c(C)c2)cc1,-0.68
Nc1nsc(N)n1,-0.24
S=c1nc(NCCc2cnc[nH]2)c2ccccc2[nH]1,0.55
Clc1cccc(-n2nnnc2C2(N3CCOCC3)CCCCC2)c1,1.24
O=c1[nH]c(O)c([N+](=O)[O-])c(=O)[nH]1,0.26
CCCC12CN3CC(C)(CN(C1)C3(C)CC)C2=O (configuration not stated),-0.44
Cc1ccc(-n2c(C=Cc3c[nH]c4ccccc34)nc3ccccc3c2=O)cc1,-0.31
CN1C2CCC1CC(OC(=O)c1ccc(Cl)cc1)C2 (configuration not stated),2.09
O=C1CCCC2=C1C(c1cccnc1)Nc1ccccc1N2 (configuration not stated),0.96
COc1cc(C)c(CNCCc2ccccc2OC)cc1C,-0.22
CN(C(=O)c1ccc(N2CC3CC(C2)c2cccc(=O)n2C3)c(N)c1)C1CCCCC1 (configuration not stated),-0.2
CCC1(C)CC2(CCCN(CCO)C2)CCO1 (configuration not stated),-0.53
CCOC(=O)C1C2NC(=S)N(c3ccc(Cl)cc3)C1(C)Oc1ccccc12 (configuration not stated),-1.29
CC1(C)COC(Nc2cccc(Cl)c2)=N1,-1.45
c1ccc(CNc2c3c(nc4ccccc24)CCC3)cc1,-0.55
O=C(Cc1ccc(Cl)cc1)N1CCN(CC=Cc2ccccc2)CC1,-0.84
CCOc1ccc(C(Nc2ccc(Br)cc2)P2(=S)OCCCO2)cc1 (configuration not stated),0.24
O=C(CN1C(=O)CN=C(c2ccccc2Cl)c2cc(Cl)ccc21)Nc1ccccc1Cl,-0.02
CCC1(C(=O)c2ccc(C)cc2)C2c3cc(Br)ccc3OC(=O)C21C(=O)OC (configuration not stated),1.15
CCN(c1ccc(C(O)(C(=O)OC)C(F)(F)F)cc1)S(=O)(=O)c1ccc(C)cc1 (configuration not stated),-0.76
Cc1nn(-c2ccccc2)c2c1C(c1cccc([N+](=O)[O-])c1)SCC(=O)N2 (configuration not stated),-1.09
OCCNc1c2c(nc3ccccc13)CCCC2,-0.27
BrCc1ccc2nsnc2c1,-0.6
CCOC(=O)C1=C(C)OC(N)=C(C(=O)OC(C)C)C12C(=O)Nc1ccc(Br)cc12 (configuration not stated),-0.27
O=C(Cc1ccccc1)Oc1ccc(N2C(=O)C3CCCCC3C2=O)cc1 (configuration not stated),0.23
O=P(Nc1ccccc1Cl)(Oc1ccccc1)Oc1ccccc1,0.85
O=c1oc2ccccc2c2c1C(c1ccccc1)c1c(c3ccccc3oc1=O)O2,-1.37
CC12CN3CC(C)(CN(C1)C31CCCCC1)C2=O,-0.16
O=C(COc1ccc(Cl)cc1)N1CCN(CC=Cc2ccccc2)CC1,0
Cc1ccc(C)c(N2CCNCC2)c1,-0.47
O=C(c1ccccc1)N(c1ccccn1)C1CN2CCC1CC2 (configuration not stated),-0.21
COc1cccc(C=C2C(=O)NC(=O)NC2=O)c1,-0.27
COc1ccc(C2SCC(=O)Nc3c2c(C)nn3-c2ccccc2)cc1OC (configuration not stated),-0.53
CN1CCN(C(=O)c2ccc(N3CC4CC(C3)c3cccc(=O)n3C4)c([N+](=O)[O-])c2)CC1 (configuration not stated),1.47
O=C(Nc1ccc(Br)cc1C(=O)c1ccccc1Cl)c1ccc(N2C(=O)CCC2=O)cc1,0.72
CCn1c(SCC(=O)Nc2ccc(Cl)cc2C(=O)c2ccccc2)nnc1-c1ccncc1,-0.02
O=C(CN1C(=O)CN=C(c2ccccc2)c2ccccc21)NCc1cccc(Cl)c1,-0.63
CCc1ccc(NC(=O)C2c3cc(OC)c(OC)cc3C(=O)N3CCCCC23)cc1 (configuration not stated),-0.36
COc1cccc(CNCCc2ccc3c(c2)OCO3)c1OC,1.61
O=C(COc1ccc(Cl)cc1)Nc1ccc(Br)cc1C(=O)c1ccccc1,0.72
O=C(CN1CCOCC1)Nc1ccc(Br)cc1C(=O)c1ccccc1,1.41
Cc1cc2c(c(=O)o1)C1(C(=O)Nc3ccccc31)C(C(=O)OCc1ccccc1)=C(N)O2 (configuration not stated),-0.37
Cc1ccc(-n2c(C=Cc3cccc(F)c3)nc3ccccc3c2=O)c(C)c1,-3.19*
Cc1ccc(NC(=O)CN2C(=O)CN=C(c3ccccc3Cl)c3cc(Cl)ccc32)c(C)c1,-0.92
O=c1c2ccccc2nc(-c2ccccc2)n1-c1ccccc1[N+](=O)[O-],-0.92

# Some of these compounds in order of SMILES length, smallest number first.
SMILES,Measles inh
O=c1c2ccccc2nc(-c2ccccc2)n1-c1ccccc1[N+](=O)[O-],-0.92
O=C(CN1C(=O)CN=C(c2ccccc2)c2ccccc21)NCc1cccc(Cl)c1,-0.63
CCn1c(SCC(=O)Nc2ccc(Cl)cc2C(=O)c2ccccc2)nnc1-c1ccncc1,-0.02

# Additional structures follow:
SMILES,Measles inh
COc1ccccc1NC(=O)c1cccc(S(=O)(=O)N2CCCCC2)c1,1.1
NCCc1nc2ccccc2[nH]1,-0.32
CC1CC(=O)N(c2ccc(N(C)C3CCN(C)CC3)c([N+](=O)[O-])c2)C1=O (configuration not stated),0.02
C=CCN(CC=C)Cc1c[nH]c2ccccc12,-0.33
COc1ccccc1OC(=O)c1ccc(C)c(S(=O)(=O)N2CCOCC2)c1,0.15
O=c1c2ccccc2nc(C=Cc2cccc3ccccc23)n1-c1ccccc1F,-0.21
O=C(Nc1cccc(Cl)c1)C1c2ccccc2C(=O)N2CCCCC12 (configuration not stated),-0.87
COc1ccc(CC(=O)N2CCN(Cc3ccc4c(c3)OCO4)CC2)cc1,-0.4
O=C(Cc1ccc([N+](=O)[O-])cc1)Nc1ccc2c(C(F)(F)F)cc(=O)oc2c1,-1.69
COc1cccc(-n2c(Cc3ccccc3)nc3ccccc3c2=O)c1,-0.63
CC1CN(c2ccc([N+](=O)[O-])cc2)CCN1 (configuration not stated),-0.41
O=C(c1ccccc1)c1cc(Br)ccc1NC(=O)c1cc(Cl)ccc1[N+](=O)[O-],0.15
Nc1nn[nH]n1,0.7
CCOC(=O)C1C2NC(=O)N(c3cccc(C)c3)C1(C)Oc1c(OCC)cccc12 (configuration not stated),-0.42
COC(=O)C1C2NC(=S)N(c3ccc(F)cc3)C1(C)Oc1c(O)cc(C(C)(C)C)cc12 (configuration not stated),-1.41
CCOC(=O)c1c(C)n(CCCOC)c2ccc(O)cc12,-0.15
COc1cc2c(cc1OC)C(C(=O)NCCC(C)C)C1CCCCN1C2=O (configuration not stated),-0.31
CCOC(=O)C1C2NC(=S)N(c3ccc(F)cc3)C1(C)Oc1ccc([N+](=O)[O-])cc12 (configuration not stated),0.28
CCN(CC)C(=O)c1ccc2c(c1)C1C3CCC(C3)C1C(c1ccccc1)N2 (configuration not stated),-0.69
CCOC(=O)c1ccc(N2C(=S)NC3c4cccc(OC)c4OC2(C)C3C(=O)OC)cc1 (configuration not stated),-0.67

# Already shown: an excerpt of the list.
SMILES,Measles inh
COc1ccc(C2SCC(=O)Nc3c2c(C)nn3-c2ccccc2)cc1OC (configuration not stated),-0.53
CN1CCN(C(=O)c2ccc(N3CC4CC(C3)c3cccc(=O)n3C4)c([N+](=O)[O-])c2)CC1 (configuration not stated),1.47
O=C(Nc1ccc(Br)cc1C(=O)c1ccccc1Cl)c1ccc(N2C(=O)CCC2=O)cc1,0.72
CCn1c(SCC(=O)Nc2ccc(Cl)cc2C(=O)c2ccccc2)nnc1-c1ccncc1,-0.02
O=C(CN1C(=O)CN=C(c2ccccc2)c2ccccc21)NCc1cccc(Cl)c1,-0.63
CCc1ccc(NC(=O)C2c3cc(OC)c(OC)cc3C(=O)N3CCCCC23)cc1 (configuration not stated),-0.36
COc1cccc(CNCCc2ccc3c(c2)OCO3)c1OC,1.61
O=C(COc1ccc(Cl)cc1)Nc1ccc(Br)cc1C(=O)c1ccccc1,0.72
O=C(CN1CCOCC1)Nc1ccc(Br)cc1C(=O)c1ccccc1,1.41
Cc1cc2c(c(=O)o1)C1(C(=O)Nc3ccccc31)C(C(=O)OCc1ccccc1)=C(N)O2 (configuration not stated),-0.37
Cc1ccc(-n2c(C=Cc3cccc(F)c3)nc3ccccc3c2=O)c(C)c1,-3.19*
Cc1ccc(NC(=O)CN2C(=O)CN=C(c3ccccc3Cl)c3cc(Cl)ccc32)c(C)c1,-0.92
O=c1c2ccccc2nc(-c2ccccc2)n1-c1ccccc1[N+](=O)[O-],-0.92
COc1ccccc1NC(=O)c1cccc(S(=O)(=O)N2CCCCC2)c1,1.1
NCCc1nc2ccccc2[nH]1,-0.32
CC1CC(=O)N(c2ccc(N(C)C3CCN(C)CC3)c([N+](=O)[O-])c2)C1=O (configuration not stated),0.02
C=CCN(CC=C)Cc1c[nH]c2ccccc12,-0.33
COc1ccccc1OC(=O)c1ccc(C)c(S(=O)(=O)N2CCOCC2)c1,0.15
O=c1c2ccccc2nc(C=Cc2cccc3ccccc23)n1-c1ccccc1F,-0.21
O=C(Nc1cccc(Cl)c1)C1c2ccccc2C(=O)N2CCCCC12 (configuration not stated),-0.87
COc1ccc(CC(=O)N2CCN(Cc3ccc4c(c3)OCO4)CC2)cc1,-0.4
O=C(Cc1ccc([N+](=O)[O-])cc1)Nc1ccc2c(C(F)(F)F)cc(=O)oc2c1,-1.69
COc1cccc(-n2c(Cc3ccccc3)nc3ccccc3c2=O)c1,-0.63
CC1CN(c2ccc([N+](=O)[O-])cc2)CCN1 (configuration not stated),-0.41
O=C(c1ccccc1)c1cc(Br)ccc1NC(=O)c1cc(Cl)ccc1[N+](=O)[O-],0.15
Nc1nn[nH]n1,0.7
CCOC(=O)C1C2NC(=O)N(c3cccc(C)c3)C1(C)Oc1c(OCC)cccc12 (configuration not stated),-0.42
COC(=O)C1C2NC(=S)N(c3ccc(F)cc3)C1(C)Oc1c(O)cc(C(C)(C)C)cc12 (configuration not stated),-1.41
CCOC(=O)c1c(C)n(CCCOC)c2ccc(O)cc12,-0.15
COc1cc2c(cc1OC)C(C(=O)NCCC(C)C)C1CCCCN1C2=O (configuration not stated),-0.31

# (list continues)
SMILES,Measles inh
O=C1CC(c2ccccc2F)CN1 (configuration not stated),-1.41
Cc1cccc(-n2c(C=Cc3c[nH]c4ccccc34)nc3ccc(I)cc3c2=O)c1,1.2
Cc1ncc(CCl)c(CO)c1O,1.27
O=C1NC(=O)C(CCc2ccncc2)(Cc2ccc(Br)s2)C(=O)N1,-0.46
C=CCOC(=O)C1=C(N)OC(C)=C(C(=O)OC)C12C(=O)Nc1ccccc12 (configuration not stated),-0.64
CC(Nc1ccc([N+](=O)[O-])c2cccnc12)C12CC3CC(CC(C3)C1)C2 (configuration not stated),-0.08
CCCCP(=O)(CCCC)Nc1cccc(C)c1,-0.62
O=C(C1CCCN(S(=O)(=O)c2ccc(Br)s2)C1)N1CC2CC(C1)c1cccc(=O)n1C2 (configuration not stated),-0.83
